AID923 = qHTS Assay for Allosteric/Competitive Inhibitors of Caspase-1: Spectroscopic Profiling in AFC Spectral Region. compound fluorescence, AFC spectral region (405/520 nm); almost no hit is shown here. Potency, µM (top dose mostly 57.5 µM), without a hit: at the top dose fluorescence increase, actives largely listed as activators. hit rate 1.1% among 75,000. AID 923, 2007; active = well fitted activation curve with a large enough effect; inconclusive = small, poorly fitted or top-dose-only effect;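 note: potency is the fitted concentration of half-maximal effect; 0% is about no effect; scaled to a free AFC standard on each plate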
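Baseline compound fluorescence (AFC region, 405 nm ex/520 nm em) taken from the intercept of kinetic reads with 50 nM caspase-1 and 5 uM Ac-WEHD-AFC; normalized to an on-plate AFC standard curve; compounds titrated up to 57 uM.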
Resorufin fluor = compounds fluorescent in resorufin spectral region; hit rate 0.04% among 59,000; AID 588; max dye-equivalent concentration, M; Compound fluorescence, resorufin region 547/598 nm, buffer; hits give high values; active = above 10 nM dye equivalent; inconclusive = 1 to 10 nM; inactive = 1 nM or less; a few of its hits are not listed in these tables; note: highest value over a series up to 38 µM
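Compounds in 100 mM Tris buffer, pH 8.0, incubated 15 min at room temperature, then read with 547 nm excitation and 598 nm emission filters. Fluorescence was converted to dye-equivalent concentration using an on-plate six-point resorufin standard curve.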
A647 autofl = A647 region autofluorescence; 59,000 tested, under 10 active; Compound fluorescence, A647 channel (570/671 nm), Tris buffer; AID 592; max dye-equivalent concentration, M; active means above 1 µM dye equivalent; inconclusive means 0.1 to 1 µM; inactive means 0.1 µM or less;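 note: values scaled relative to a standard on each plate; highest value over a series up to 38 µM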
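Buffer was dispensed, compounds and Alexa 647 standards were pin-transferred, and plates sat 15 min at room temperature. Intensity at 570/671 nm was then converted to dye-equivalent concentration using the plate's A647 standard curve.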
TSHR ag = agonists of human thyroid stimulating hormone receptor | P16473 | HEK293-CNG-TSHR cells (CNG channel as cAMP sensor), membrane potential dye, cAMP | Potency, µM (series often up to 57.1 µM), for the others: top-dose activation, most hits filed as activators | hit rate 0.48% among 73,000 | AID 926; active = well fitted activation curve of enough size with the parental cells flat; inconclusive = any curve in the parental cells; inactive = parental cells flat and receptor cells flat or falling; note: potency is the fitted concentration of half-maximal effect; % of control where 0% means no effect; weak receptor curves with flat parental cells got no call and are not listed
Target sequence (P16473 whole entry, looked up): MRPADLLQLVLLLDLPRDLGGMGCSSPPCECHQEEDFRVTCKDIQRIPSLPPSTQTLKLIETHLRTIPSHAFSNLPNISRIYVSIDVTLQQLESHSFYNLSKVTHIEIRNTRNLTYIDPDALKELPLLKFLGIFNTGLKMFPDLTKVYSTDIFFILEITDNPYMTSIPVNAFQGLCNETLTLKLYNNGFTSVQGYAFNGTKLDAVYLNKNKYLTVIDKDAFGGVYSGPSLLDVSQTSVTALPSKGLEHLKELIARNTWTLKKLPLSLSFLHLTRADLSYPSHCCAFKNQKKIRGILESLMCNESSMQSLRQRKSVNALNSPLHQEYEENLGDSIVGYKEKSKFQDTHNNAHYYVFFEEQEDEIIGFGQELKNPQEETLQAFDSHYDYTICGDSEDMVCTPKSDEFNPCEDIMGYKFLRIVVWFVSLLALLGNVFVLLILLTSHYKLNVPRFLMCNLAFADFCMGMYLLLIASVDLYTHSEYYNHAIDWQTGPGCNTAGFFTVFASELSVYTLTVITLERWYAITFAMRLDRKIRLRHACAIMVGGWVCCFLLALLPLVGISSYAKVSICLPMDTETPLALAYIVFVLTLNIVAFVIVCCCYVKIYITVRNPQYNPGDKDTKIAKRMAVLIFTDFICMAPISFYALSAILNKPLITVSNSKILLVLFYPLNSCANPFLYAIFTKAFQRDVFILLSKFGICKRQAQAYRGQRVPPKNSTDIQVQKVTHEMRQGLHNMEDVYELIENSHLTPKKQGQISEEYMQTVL
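HEK 293 cells stably expressing TSHR and a cAMP-gated CNG channel; parental CNG-only cells as counterscreen. Cells preloaded 60 min with membrane potential dye plus 100 uM RO 20-1724, then compound 30 min; fluorescence read at 590 nm.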
A488 fluor = A488 region autofluorescence | hit rate 0.1% among 59,000 | max dye equivalency, M | compound autofluorescence, A488 spectral region, dye equivalency; hits give high values; active = above 10 nM dye equivalent; inconclusive = 1 to 10 nM; inactive = 1 nM or less; about half of its hits are not listed in these tables;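 note: highest value over a series up to 38 µM; compound alone in buffer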
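Spectroscopic profiling in the A488 region: compounds in pH 8.0 Tris (100 mM), 15 min RT, CCD imaging with 480 nm excitation and 540 nm emission; responses normalized against A488 dye standards.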
The depositor's hits bear a star; i = inactive; ? = inconclusive; . = not tested or not shown; & = joins results of further samples; [ ] = dose if it differs, or a comment. The list is partial; the hit share may differ from the screen's.

SMILES	AID923	Resorufin fluor	A647 autofl	TSHR ag	A488 fluor
Cc1cc(C)n(C(=O)c2ccc(S(=O)(=O)NCC3CCCO3)cc2)n1 (stereo not drawn)	-0.2%	i	5.8e-09	6%	i
COc1ccc(S(=O)(=O)Cc2ccc(C(=O)N3CCN(C(=O)c4ccco4)CC3)o2)cc1	3.9%	.	.	-1%	.
COc1ccccc1C(c1nnnn1CS(=O)(=O)c1ccc(C)cc1)N1CCSCC1 (stereo not drawn)	0.0%	i	1e-09	12%	i
CC(C)Cc1nc(N2CCN(C(=O)C(C)C)CC2)c(C#N)c2c1CCC2	.	i	2.6e-09	.	i
Cc1ccc(-c2nc(CS(=O)CC(=O)NCCN(CC(C)C)CC(C)C)c(C)o2)cc1 (stereo not drawn)	0.8%	i	3.2e-08	1%[11.4 µM]	i
O=C(CSc1nc2sc3c(c2c(=O)n1Cc1ccco1)CCC3)N1CCc2ccccc21	-1.6%	i	7.1e-09	20%	i
Cn1c(Cn2c(=O)sc3ccccc32)nnc1SCc1ccc(F)cc1	0.7%	.	.	9%	.
CC(=O)[C@H]([C@@H](c1ccccc1)N1CCOCC1)N1CCOCC1	0.8%[11.5 µM]	i	6.1e-08	4%[11.4 µM]	i
COc1ccccc1C1c2c(oc3ccc(Cl)cc3c2=O)C(=O)N1c1cc(C)on1 (stereo not drawn)	5.2%	i	1.5e-09	-3%	i
Cc1c(S(=O)(=O)O)ccc(N=Nc2c(O)c(C(=O)O)cc3ccccc23)c1Cl	-2.3%[11.5 µM]	i	2.3e-08	-9%[11.4 µM]	i
CC(C)(O)P(C)(=O)c1ccccc1 (stereo not drawn)	2.9%	.	.	-7%	.
CCOC(=O)c1cnn(-c2nc(C)nc3sc4c(c23)CCC4)c1N	-1.2%	i	2.2e-08	6%	i
CC1=CC(C)(C)N=C(NC#N)N1	-0.1%	i	2.4e-08	?	i
COc1ccccc1CN1CC[C@@]2(CCCN(C(C)=O)C2)C1	0.5%	i	1e-09	3%	i
COc1ccc(CC(=O)OCc2cc3ccccc3[nH]c2=O)cc1	-0.3%	i	2.2e-09	24%	i
CCCc1nc(SCC(=O)N2CCC(Cc3ccccc3)CC2)c2c(=O)n(C)c(=O)n(C)c2n1	-4.1%	.	.	12%	.
c1ccc(-c2noc(COc3ccc4c(c3)OCO4)n2)cc1	1.6%	i	1e-09	-2%[11.4 µM]	i
CCOC(=O)c1[nH]c(C)c(C(=O)NC)c1C	-0.2%	.	.	-9%	.
CCCOc1ccc(CSC(CC(=O)O)C(=O)O)cc1 (stereo not drawn)	.	i	8.1e-09	.	i
COc1ccccc1N=c1oc2c(OC)cccc2cc1C(=O)NCc1ccco1	0.9%	i	1.3e-09	?	i
N#CCCN(CC#Cc1ccccc1)OCc1ccccc1	0.4%[11.5 µM]	.	.	?	.
CC(=O)Oc1ccc2occ(C(=O)c3cccs3)c2c1	0.0%	.	.	?	.
CC(C)=CCC/C(C)=C/CO/N=C1/C[C@@H](O)[C@@H](O)[C@@H]2[C@@H]3C(=O)N(Cc4ccc5c(c4)OCO5)C(=O)[C@H]3CC[C@@H]12	-0.9%[11.5 µM]	.	.	-2%[11.4 µM]	.
CC1(C)OC(=O)C(=CNn2cnc3ccccc3c2=O)C(=O)O1	-0.3%	i	3.5e-08	0%	i
CC(=O)Oc1ccc(CCC(C)OC(C)=O)cc1 (stereo not drawn)	-1.5%	.	.	3%	.

Entries listed so far containing four or more nitrogen atoms:
SMILES	AID923	Resorufin fluor	A647 autofl	TSHR ag	A488 fluor
COc1ccccc1C(c1nnnn1CS(=O)(=O)c1ccc(C)cc1)N1CCSCC1 (stereo not drawn)	0.0%	i	1e-09	12%	i
CC(C)Cc1nc(N2CCN(C(=O)C(C)C)CC2)c(C#N)c2c1CCC2	.	i	2.6e-09	.	i
Cn1c(Cn2c(=O)sc3ccccc32)nnc1SCc1ccc(F)cc1	0.7%	.	.	9%	.
CCOC(=O)c1cnn(-c2nc(C)nc3sc4c(c23)CCC4)c1N	-1.2%	i	2.2e-08	6%	i
CC1=CC(C)(C)N=C(NC#N)N1	-0.1%	i	2.4e-08	?	i
CCCc1nc(SCC(=O)N2CCC(Cc3ccccc3)CC2)c2c(=O)n(C)c(=O)n(C)c2n1	-4.1%	.	.	12%	.

The main list resumes with the 3 entries that preceded the break.
SMILES	AID923	Resorufin fluor	A647 autofl	TSHR ag	A488 fluor
CC(C)=CCC/C(C)=C/CO/N=C1/C[C@@H](O)[C@@H](O)[C@@H]2[C@@H]3C(=O)N(Cc4ccc5c(c4)OCO5)C(=O)[C@H]3CC[C@@H]12	-0.9%[11.5 µM]	.	.	-2%[11.4 µM]	.
CC1(C)OC(=O)C(=CNn2cnc3ccccc3c2=O)C(=O)O1	-0.3%	i	3.5e-08	0%	i
CC(=O)Oc1ccc(CCC(C)OC(C)=O)cc1 (stereo not drawn)	-1.5%	.	.	3%	.
CC(=O)N(c1ccc2oc(=O)sc2c1)S(=O)(=O)c1cccs1	-0.3%	i	2.4e-08	14%	i
CCN(CC)C(=O)c1ccc(O)c(OC)c1	-1.5%	i	4.2e-09&3.6e-08&4.9e-08	-9%[25.6 µM]	i
Fc1ccc(Cn2nnnc2CN2CCc3ccccc3C2)cc1	0.8%	i	4.3e-08	?	i
CC[C@H]1CN(C)[C@H]2Cc3c([nH]c4ccccc34)C(=O)C[C@H]1[C@H]2C(=O)OC	-1.4%[11.5 µM]	i	6.9e-09	0%[11.4 µM]	i
COc1cc(C)c(N)cc1C(C)C	0.2%	i	1e-09	4%	i
Cc1cccc(OCc2nnc(SCC(=O)Nc3sc(C)c(C)c3C#N)n2C)c1	0.6%	i	1.3e-08	13%	i
COc1ccc(CN(C(=O)c2oc3ccccc3c2C)C2CCS(=O)(=O)C2)cc1 (stereo not drawn)	2.1%	i	4.2e-09	19%	i
Cc1ccnc(NC(=O)CCc2c(C)nc3ncnn3c2C)c1	-3.5%	i	3e-08	-2%[11.4 µM]	i
COc1cc(S(=O)(=O)NC2CCCC2)ccc1Cl	2.7%	i	5.1e-09	13%	i
CC(Oc1ccccc1)C(=O)Nc1ccc(C(N)=O)cc1 (stereo not drawn)	-0.1%	i	3.1e-08	-6%	i
CC1CC(C)CN(CCCNC(=O)CC2Oc3ccccc3NC2=O)C1 (stereo not drawn)	-1.0%	.	.	-12%	.
COC(=O)C(C)Sc1nnc(Cc2cc(=O)[nH]c(=O)[nH]2)n1-c1ccc(OC)cc1 (stereo not drawn)	1.5%	.	.	?	.
CN1CCN(CCCN2c3ccccc3Sc3ccc(Cl)cc32)CC1	1.0%	i	2.5e-08&3.8e-08&6.7e-09	?	i
Cn1cc(Cl)c(C(=O)NC2CCCC2)n1	0.0%	.	.	?	.
O=C(CCNC(=O)Cn1ccc2ccccc2c1=O)NCCN1CCc2ccccc2C1	-0.8%	i	3.4e-08	-5%[11.4 µM]	i
COc1cccc(C(=O)N(Cc2ccc3c(c2)OCO3)Cc2nc3ccccc3c(=O)[nH]2)c1	-1.7%	i	9.6e-09	16%	i
O=C(NCC1CCCO1)Nc1cccc(Cl)c1 (stereo not drawn)	-0.2%	i	1e-09	-3%	i
CC(C)(C)c1ccc(CN2CCN([C@H](c3ccccc3)c3ccc(Cl)cc3)CC2)cc1	0.3%[11.5 µM]	i	1e-09	-4%[11.4 µM]	i
c1c[nH]c(CN2CCN(Cc3ncc[nH]3)CC2)n1	-0.7%[11.5 µM]	i	3.7e-09	4%[11.4 µM]	i
Cc1nc(SCc2c(F)cccc2Cl)n[nH]1	1.0%	i	5.2e-08	1%	i
COc1ccc(C(OC(=O)c2ccco2)C(=O)NC2CCCCC2)cc1OC (stereo not drawn)	0.9%	i	2.5e-08	7%	i
O=C(CS(=O)(=O)Cc1ccccc1)N1CCc2ccccc21	1.4%	i	1.7e-08	3%	i
CC(=O)OC(Cn1ccnc1)c1ccccc1 (stereo not drawn)	0.0%	i	6.1e-09	22%	i
Nc1ncnc2oc(-c3ccco3)c(-c3ccco3)c12	7.8%	.	.	-15%	.
COc1ccc(NC(=O)Nc2ccccc2C)c(OC)c1	4.7%	.	.	-3%	.

Further entries follow.
SMILES	AID923	Resorufin fluor	A647 autofl	TSHR ag	A488 fluor
Cc1cnc(CNc2nc(-c3ccc4c(c3)OCO4)nc3ccccc23)cn1	1.6%	i	1e-09	20%	i
CCn1nc(C)c(NC(=O)CSc2nnc(-c3ccco3)n2C)c1C	-0.3%	i	1e-09	5%	i
CNC(=O)CSc1nnc(CCc2ccccc2)n1-c1ccccc1	0.9%	i	1e-09	8%	i
COc1ccccc1N1CCN(CC(=O)Nc2ccc(C)c(F)c2)CC1	-1.2%	i	4.7e-08	?	i
O=C(OCC(=O)N1CCCc2ccccc21)c1ccc(Br)o1	-1.8%	i	3.1e-08	5%	i
CCOC(=O)c1c(C)[nH]c(C(=O)COC(=O)c2ccc(N3CCCC3=O)cc2)c1C	-0.9%	i	1e-09	-1%	i
Cc1noc(C)c1CSc1nnc2scc(-c3ccccc3)n12	1.3%	i	2.1e-08	7%	i
CN(Cc1ccco1)c1ncncc1-c1cccc(C#N)c1	0.4%	i	1.7e-08	-2%	i
CCCCCCCC/C=C\CCCCCCCC(N)=O	0.0%	.	.	-1%	.
COC(=O)c1ccccc1NC(=O)CN1CCC(NC(=O)c2ccc(C)cc2)CC1	1.8%	i	2.2e-08	?	i
O=C(CNS(=O)(=O)c1ccc(F)cc1)N1CCN(c2ccccc2)CC1	1.2%	i	1.4e-08	-18%	i
CCOc1ccc(-n2c(SCC(=O)NCc3ccco3)nc3c([nH]c4ccccc43)c2=O)cc1	-1.5%	i	1e-09	14%[11.4 µM]	i
COCCN(C(=O)C(F)(F)F)C(C(=O)NC1CCCCC1)c1ccco1 (stereo not drawn)	-0.3%	i	1.8e-09	?	i
Cc1ccc2c(c1)NC(=O)C(CC(=O)Nc1ccc(CN3CCC(C)CC3)cc1)O2 (stereo not drawn)	0.1%	.	.	3%	.
COc1ccc(C(=O)NC2(C(F)(F)F)N=C3SCCN3C2=O)cc1 (stereo not drawn)	0.4%	i	1e-09	.	i
Cn1c(SCC(=O)N2CCCc3ccccc32)nnc1-c1ccccc1	0.4%	i	1.2e-09	0%	i
N#Cc1ccc(NC(=O)N2CCC(c3nc4c(nnn4Cc4cccc(Cl)c4)c(=O)[nH]3)CC2)cc1	-0.2%	i	1e-09	-3%[11.4 µM]	i
COc1ccc(C)cc1NC(=O)CN(C)S(=O)(=O)c1cccs1	-0.4%	i	1e-09	1%	i
CNCC[C@@H](Oc1ccccc1C)c1ccccc1	-2.3%	.	.	?	.
O=C(CSc1nnc(-c2ccccc2)o1)Nn1cnnc1	1.4%	i	7.8e-09	-2%	i
CCOC(=O)c1ccccc1NC1CC(=O)N(c2ccccc2C)C1=O (stereo not drawn)	1.6%	i	2.3e-08	-3%[11.4 µM]	i
COc1cc2[nH]c(=O)n(CCCCCC(=O)N3CCN(c4ccccn4)CC3)c(=O)c2cc1OC	1.0%	i	1.2e-09	-3%	i
O=C1OC(Nc2ccc(F)cc2F)c2ccccc21 (stereo not drawn)	2.1%	i	5.3e-08	3%	i
CCOCCOC(=O)c1cccc(NC(=O)OCC)c1	-0.2%	.	.	3%	.
CCn1nnc(-c2ccccc2NS(=O)(=O)c2ccc(S(=O)(=O)N3CCCCCC3)cc2)n1	-0.2%	i	1e-09	6%	i
COC(=O)c1ccc(C(NC(=O)OCc2ccccc2)/C(=C/[C@@H](C)C(=O)NCc2cccnc2)c2cccnc2)cc1 (stereo partly drawn)	0.5%	.	.	8%	.
